PABP polyA inh: blocks human PABP binding to poly(A) RNA | fluorescence polarization | inhibition, % at 35 µM | 1% of 290,000 active | AID 2014 | P11940;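 active means 50% or more with normal probe brightness, or confirmed in later tests; about a fifth of its hits are not listed in these tables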;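 further: calls also rest on retests at 20 µM and on dose response follow-up; controls were probe without protein and protein plus probe with vehicle; some compounds called inactive have numbers as strong as hits; many hits fall short of the cut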
Target sequence (P11940 whole entry, looked up): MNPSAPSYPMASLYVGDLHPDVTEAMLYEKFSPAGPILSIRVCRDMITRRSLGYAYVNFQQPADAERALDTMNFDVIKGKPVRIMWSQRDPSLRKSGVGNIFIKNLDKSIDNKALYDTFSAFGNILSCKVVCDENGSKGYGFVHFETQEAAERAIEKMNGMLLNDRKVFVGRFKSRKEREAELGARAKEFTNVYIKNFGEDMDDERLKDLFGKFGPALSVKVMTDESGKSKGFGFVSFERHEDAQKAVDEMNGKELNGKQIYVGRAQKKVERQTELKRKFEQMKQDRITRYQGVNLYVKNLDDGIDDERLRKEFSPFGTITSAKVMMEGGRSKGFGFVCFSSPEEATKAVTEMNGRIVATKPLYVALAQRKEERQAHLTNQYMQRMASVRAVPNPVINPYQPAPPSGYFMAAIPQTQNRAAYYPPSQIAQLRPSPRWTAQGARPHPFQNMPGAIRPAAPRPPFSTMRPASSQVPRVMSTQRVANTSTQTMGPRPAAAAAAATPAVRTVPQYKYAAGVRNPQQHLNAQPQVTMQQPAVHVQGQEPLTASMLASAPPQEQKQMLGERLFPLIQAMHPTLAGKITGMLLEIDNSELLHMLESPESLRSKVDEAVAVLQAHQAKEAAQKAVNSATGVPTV
CSC inhib: blocks cancer stem cells | cancer stem cell-like cells viability, luminescence | inhibition, % at 7.5 µM | 1.1% of 300,000 active | AID 2717;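 active means mean at 75% or more and at least half the replicates too; tested in HMLE shEcad cells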;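 further: 0% = median of negative and 100% = median of positive control wells; the first replicate is given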
HIV Env fusion: HIV envelope-mediated fusion inhibition; 1.1% of 360,000 active; inhibition, % at 12.3 µM; AID 651610; HeLa-JRFL Env/CEM21 cell fusion, luciferase;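 active means mean replicate inhibition score of at least 50 and every replicate individually at or above 50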;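 further: 0% = plate neutral controls and 100% = maraviroc near 300 nM; one replicate is shown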
Yeast UUG start: alters start codon recognition fidelity in yeast; AID 602363; S. cerevisiae UUG-firefly luciferase reporter, luminescence/redox ratio; activity score, % at 18.7 µM; 0.13% of 350,000 active;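 active means replicate mean at a twofold rise or more, about +100% in these data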;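 further: firefly luciferase made from a UUG start codon reports start codon fidelity; reporter light over untreated wells divided by growth signal over untreated wells; some hits fall short of that in this replicate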
Rce1 inhib: blocks yeast Ras-converting enzyme; AID 2563; 0.27% of 290,000 active; Q03530; calls only; yeast membranes, quenched prenylated peptide cleavage fluorescence;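 active means fall in fluorescence gain of 50% or more versus controls, with final raw signal at or below 3038400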;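 further: plate controls were neutral control wells for no effect and wells lacking membranes for full effect; tested at 10 µM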
Target sequence (Q03530 whole entry, looked up): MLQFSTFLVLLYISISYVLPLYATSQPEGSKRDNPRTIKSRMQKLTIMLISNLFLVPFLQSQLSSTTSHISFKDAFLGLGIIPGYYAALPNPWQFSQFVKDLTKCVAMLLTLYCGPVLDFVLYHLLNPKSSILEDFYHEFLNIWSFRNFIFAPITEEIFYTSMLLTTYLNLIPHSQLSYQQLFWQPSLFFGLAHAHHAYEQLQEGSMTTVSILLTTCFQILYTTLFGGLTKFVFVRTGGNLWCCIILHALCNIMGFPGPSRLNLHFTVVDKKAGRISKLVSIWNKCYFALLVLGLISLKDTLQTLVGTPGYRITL
MT1-MMP act inh: MT1-MMP (human) activation inhibition. P50281. HT1080 RFP-PRO-GFP cells, GFP/RFP ratio fluorescence, overnight; percent of plate control window, DMSO zero. GFP/RFP ratio change, % at 20 µM. 0.061% of 360,000 active. AID 651647;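 active means GFP/RFP ratio change of at least 30% with cell ATP level not reduced by more than half and red fluorescence within 50% of control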; further: strong numbers were not always called active
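Material – HT1080 RFP-PRO-GFP cells · Control set – DMSO wells and RFP-L50D-GFP cells · Incubation – overnight cell settling, then overnight compound exposure, 37 °C, 5% CO2 · Compound dosing – single-point 20 µM compound, 1% DMSO · Read-out – GFP/RFP fluorescence ratio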
eIF4H inh: inhibitors of RNA binding by human eIF4H; 0.94% of 290,000 active; inhibition, % at 35 µM; Q15056; eIF4H fluorescence polarization binding assay;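 active means 50% or more with normal probe brightness, or confirmed in later tests; about a fifth of its hits are not listed in these tables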;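 further: calls also rest on retests at 20 µM and on dose response follow-up; 0% = protein and probe with vehicle and 100% = probe without protein; strong numbers were not always called active; many hits fall short of the cut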
MT1-MMP act inh RFP: also measured in MT1-MMP act inh; calls as there; RFP signal change, %; measured here: RFP expression control read;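 0 = vehicle wells; hits needed this value within 50% of zero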
* hit, by the source's call. The list is partial; the hit share may differ from the screen's.

For CC(C)c1cccc(OCCCCN(C)C)c1 the results were PABP polyA inh 1.1, CSC inhib -0.6, HIV Env fusion 9.4, Rce1 inhib inactive, MT1-MMP act inh 2.2, eIF4H inh 12.3 and MT1-MMP act inh RFP 5.6.
Screening COc1ccccc1C(CNC(=O)c1cccc(NS(=O)(=O)c2ccc(C)c(F)c2)c1)N1CCCC1 (stereo not drawn) returned CSC inhib -6.1, HIV Env fusion 5.1, Yeast UUG start 3.7, Rce1 inhib inactive, MT1-MMP act inh 2.8 and MT1-MMP act inh RFP 4.9.
Screening Cc1cc(=O)n2nc(N3CCCC(C(=O)NCCc4ccccc4)C3)sc2n1 (stereo not drawn) returned PABP polyA inh -1.7, CSC inhib 0.0, Yeast UUG start 2.7, MT1-MMP act inh 3.9, eIF4H inh -2.6 and MT1-MMP act inh RFP 5.6.
Screening O=C(CSc1nnc(NC(=O)c2ccco2)s1)Nc1ccc(F)cc1F returned PABP polyA inh 9.3, CSC inhib -13.6, Yeast UUG start 4.1, Rce1 inhib inactive, MT1-MMP act inh 0.3, eIF4H inh 3.5 and MT1-MMP act inh RFP 1.2.
`COc1cccc(CN2CCN(Cc3nc(C(C)C)cs3)CC2CCO)c1` (stereo not drawn) gave PABP polyA inh -2.4, CSC inhib -10.7, HIV Env fusion 13.6, Rce1 inhib inactive, MT1-MMP act inh 1.0, eIF4H inh 3.6 and MT1-MMP act inh RFP -0.6.
`CC(c1ccccc1)C1CC(=O)N(c2ccc([N+](=O)[O-])cc2)C1=O` (stereo not drawn) gave PABP polyA inh -4.9, CSC inhib -25.4, HIV Env fusion -21.0, Yeast UUG start -1.5, Rce1 inhib inactive, MT1-MMP act inh -2.7, eIF4H inh -3.2 and MT1-MMP act inh RFP -3.2.
CC(CCc1ccccc1)N(C)CC(O)c1cccc([N+](=O)[O-])c1 (stereo not drawn) was read as PABP polyA inh -8.1, CSC inhib -4.7, HIV Env fusion 7.3, Yeast UUG start -17.5, Rce1 inhib inactive, MT1-MMP act inh -1.1, eIF4H inh -1.9 and MT1-MMP act inh RFP -1.6.
For CSc1nc(-c2ccco2)nn1C(=O)c1cccs1 the results were PABP polyA inh 5.5, CSC inhib 0.3, Yeast UUG start -18.9, Rce1 inhib inactive, MT1-MMP act inh -12.1, eIF4H inh -1.1 and MT1-MMP act inh RFP -2.5.
CCCc1nc2ccc(NC(=O)c3cccs3)cc2c(=O)n1Cc1ccccc1Cl was read as PABP polyA inh -9.7, CSC inhib 1.6, HIV Env fusion 2.4, Rce1 inhib inactive, MT1-MMP act inh 1.6, eIF4H inh 0.2 and MT1-MMP act inh RFP -3.5.
CC(=O)Nc1ccccc1C was read as CSC inhib -6.1, Yeast UUG start -11.9, MT1-MMP act inh -0.2 and MT1-MMP act inh RFP 10.3.
`Cc1ccc(C2C3=C(CC(C)(C)CC3=O)Nc3onc(C)c32)cc1` (stereo not drawn) gave PABP polyA inh 0.2, CSC inhib -5.2, Rce1 inhib inactive, MT1-MMP act inh -5.7, eIF4H inh -6.2 and MT1-MMP act inh RFP 2.5.
Screening CC(=O)N1CCN(CCN=CC2=C(O)CC(c3ccc(Cl)cc3)CC2=O)CC1 (stereo not drawn) returned PABP polyA inh 10.1, CSC inhib -11.8, HIV Env fusion 18.7, Yeast UUG start -20.8, Rce1 inhib inactive, MT1-MMP act inh 1.3, eIF4H inh -1.6 and MT1-MMP act inh RFP 3.5.
Screening Oc1[nH]c2ccccc2c1N=Nc1c(F)c(F)c(C(F)(F)F)c(F)c1F returned PABP polyA inh -5.0, CSC inhib -3.3, HIV Env fusion -4.5, Yeast UUG start -4.6, Rce1 inhib inactive, MT1-MMP act inh 3.5, eIF4H inh -11.8 and MT1-MMP act inh RFP 0.7.
Screening CCc1ccc(Nc2cc(C(=O)NCCCN3CCOCC3)c3ccccc3n2)cc1 returned PABP polyA inh 5.7, CSC inhib 1.1, HIV Env fusion 1.4, Yeast UUG start -11.7, Rce1 inhib inactive, MT1-MMP act inh 2.7, eIF4H inh 5.5 and MT1-MMP act inh RFP 2.8.
`O=C(NC1CCCC1)C(c1cccnc1)N(C(=O)c1csnn1)c1ccccc1Cl` (stereo not drawn) gave PABP polyA inh 0.9, CSC inhib -16.6, HIV Env fusion 2.7, Yeast UUG start 4.6, Rce1 inhib inactive, MT1-MMP act inh -2.1, eIF4H inh -5.4 and MT1-MMP act inh RFP -0.5.
Screening COCCNC(=O)c1ccc2c3n(nc2c1)-c1ccc(C)cc1CO3 returned PABP polyA inh -4.7, CSC inhib -1.6, HIV Env fusion -120.0, Yeast UUG start -7.8, Rce1 inhib inactive, MT1-MMP act inh 8.4, eIF4H inh -5.1 and MT1-MMP act inh RFP -4.6.
CCc1nc2cccnc2n1-c1ccc(CC(=O)NC(C)CC)cc1 (stereo not drawn) was read as PABP polyA inh 11.5, CSC inhib 1.9, HIV Env fusion 14.1, Yeast UUG start -17.3, Rce1 inhib inactive, MT1-MMP act inh -1.3, eIF4H inh 4.8 and MT1-MMP act inh RFP 1.6.
For O=[N+]([O-])c1cccc(S(=O)(=O)N2CCCCC2)c1 the results were PABP polyA inh 2.3, CSC inhib -5.6, HIV Env fusion -2.6, Yeast UUG start -23.4, Rce1 inhib inactive, MT1-MMP act inh -1.1, eIF4H inh 0.9 and MT1-MMP act inh RFP 0.1.
Screening Cc1cc(-c2nnc3sc(-c4ccc(Cl)cc4Cl)nn23)n[nH]1 returned PABP polyA inh 1.8, CSC inhib -1.1, Yeast UUG start -22.9, Rce1 inhib inactive, MT1-MMP act inh 1.5, eIF4H inh -10.5 and MT1-MMP act inh RFP 0.8.
For CCCCSCc1[nH]c(=O)[nH]c1C(=O)CCCCC(=O)OCC the results were PABP polyA inh 10.3, CSC inhib -20.4, HIV Env fusion -91.6, Yeast UUG start 4.1, Rce1 inhib inactive, MT1-MMP act inh 2.2, eIF4H inh 3.3 and MT1-MMP act inh RFP 5.0.
COCc1nnc(SCC(=O)NC(C)c2ccccc2)n1-c1ccccc1 (stereo not drawn) was read as PABP polyA inh 1.5, Yeast UUG start -1.6, MT1-MMP act inh 5.6, eIF4H inh -0.6 and MT1-MMP act inh RFP 1.2.
`Cc1cc(NC(=O)c2ccc(F)cc2)n(-c2ccccn2)n1` gave PABP polyA inh -0.4, HIV Env fusion -1.0, Rce1 inhib inactive, MT1-MMP act inh 1.5, eIF4H inh -5.4 and MT1-MMP act inh RFP 2.1.
COc1cc(C(=S)N2CCOCC2)ccc1OC(=O)c1cc(OC)c(OC)c(OC)c1 was read as PABP polyA inh 2.6, CSC inhib -8.5, HIV Env fusion 0.2, Yeast UUG start -5.5, Rce1 inhib inactive, MT1-MMP act inh 3.8, eIF4H inh -5.7 and MT1-MMP act inh RFP 0.9.
For CC(C)CCn1c(CN2CCN(C(=O)c3ccco3)CC2)nc2c1c(=O)n(C)c(=O)n2C the results were PABP polyA inh 8.1, CSC inhib -9.0, HIV Env fusion 8.2, Yeast UUG start 3.4, Rce1 inhib inactive, MT1-MMP act inh -1.5, eIF4H inh 4.5 and MT1-MMP act inh RFP 2.4.
Screening COC(=O)c1c(NC(=O)CSc2nc(-c3ccco3)cc(C(F)(F)F)n2)sc2c1CCCC2 returned PABP polyA inh 0.8, CSC inhib 15.2, Yeast UUG start -6.1, MT1-MMP act inh -0.4, eIF4H inh -7.6 and MT1-MMP act inh RFP -3.1.
CCC(=O)c1ccc(OCC(=O)Nc2cc(S(=O)(=O)N3CCCCC3)ccc2OC)cc1 was read as PABP polyA inh -1.5, CSC inhib -6.1, Yeast UUG start -5.2, Rce1 inhib inactive, MT1-MMP act inh 1.4, eIF4H inh -4.7 and MT1-MMP act inh RFP -11.5.
For O=C(N/N=C\c1cc2c(cc1[N+](=O)[O-])OCO2)c1cccs1 the results were PABP polyA inh 5.7, CSC inhib -11.9, HIV Env fusion -1.7, Yeast UUG start -13.2, Rce1 inhib inactive, MT1-MMP act inh -4.2, eIF4H inh 16.6 and MT1-MMP act inh RFP 0.7.
`Nc1cc(S(=O)(=O)c2ccc(O)c(N)c2)ccc1O` gave PABP polyA inh 7.5, CSC inhib -0.5, HIV Env fusion -4.2, Rce1 inhib inactive, MT1-MMP act inh 1.3, eIF4H inh 9.4 and MT1-MMP act inh RFP 3.6.
Cc1ccccc1-c1cc2nc(NCc3ccc(N(C)C)cc3)n(C)c(=O)c2s1 was read as HIV Env fusion 31.1, Yeast UUG start 1.8, MT1-MMP act inh -1.7 and MT1-MMP act inh RFP -27.1.
CCOc1ccc(S(=O)(=O)N(C)CC(=O)N2CCCC2)cc1 was read as PABP polyA inh 6.8, CSC inhib 0.0, HIV Env fusion -0.3, Yeast UUG start -15.5, Rce1 inhib inactive, MT1-MMP act inh 2.1, eIF4H inh -0.5 and MT1-MMP act inh RFP 1.9.
For NS(=O)(=O)c1ccc(CNC(=O)c2cc(S(=O)(=O)N3CCOCC3)c(Cl)cc2Cl)cc1 the results were HIV Env fusion -13.6, Yeast UUG start -3.1, MT1-MMP act inh 5.1 and MT1-MMP act inh RFP 3.0.
For Cc1ccc(N2CC(C(=O)Nc3nnc(C)s3)CC2=O)cc1 (stereo not drawn) the results were PABP polyA inh -4.0, CSC inhib -4.9, Yeast UUG start -11.3, Rce1 inhib inactive, MT1-MMP act inh -2.4, eIF4H inh 1.3 and MT1-MMP act inh RFP 5.5.
`Cc1ccc([N+](=O)[O-])cc1S(=O)(=O)NCCc1c(C)[nH]c2c(C)cccc12` gave PABP polyA inh -2.0, CSC inhib 14.1, HIV Env fusion -0.4, Yeast UUG start 0.9, Rce1 inhib inactive, MT1-MMP act inh -2.5, eIF4H inh -7.0 and MT1-MMP act inh RFP -0.3.
For Cc1ccc(N2C(=O)c3n[nH]c(C)c3C2c2cccnc2)cc1 (stereo not drawn) the results were PABP polyA inh -4.2, CSC inhib -19.0, HIV Env fusion -50.0, Yeast UUG start 0.0, Rce1 inhib inactive, MT1-MMP act inh 0.7, eIF4H inh -7.4 and MT1-MMP act inh RFP 0.0.
For CC(=O)Nc1ccc(C(=O)N/C(=C/c2ccccc2)C(=O)N2CCCCC2)cc1 the results were PABP polyA inh 2.0, CSC inhib 2.8, HIV Env fusion -0.5, Yeast UUG start 7.6, Rce1 inhib inactive, MT1-MMP act inh 2.5, eIF4H inh 0.1 and MT1-MMP act inh RFP 1.8.
Screening CC1(C)Cc2cccc(OCC(=O)Nc3ccccc3N3CCOCC3)c2O1 returned PABP polyA inh -9.9, CSC inhib -2.8, HIV Env fusion 39.5, Yeast UUG start 4.2, Rce1 inhib inactive, MT1-MMP act inh -0.9, eIF4H inh 3.2 and MT1-MMP act inh RFP -3.5.
For COc1ccc(N2CCN(C(=O)Cn3nnc(-c4ccc(N(C)C)cc4)n3)CC2)cc1 the results were PABP polyA inh -1.6, CSC inhib -8.2, HIV Env fusion 3.9, Yeast UUG start -9.8, Rce1 inhib inactive, MT1-MMP act inh 2.9, eIF4H inh -2.7 and MT1-MMP act inh RFP -2.3.
Screening C/C(Cl)=C\Cn1c(Nc2ccccc2)nc2c1c(=O)n(C)c(=O)n2C returned PABP polyA inh -8.7, CSC inhib -12.5, Yeast UUG start -7.1, Rce1 inhib inactive, MT1-MMP act inh -5.4, eIF4H inh -8.3 and MT1-MMP act inh RFP -8.0.
CCCc1cc(C(=O)OC)c(NC(=O)CCCC(=O)O)s1 was read as PABP polyA inh -1.0, CSC inhib -3.9, HIV Env fusion 10.6, Rce1 inhib inactive, MT1-MMP act inh -0.3, eIF4H inh -9.0 and MT1-MMP act inh RFP -2.6.
`O=C(Nc1nnc(CC2=CCCCC2)s1)Nc1ccccc1F` gave PABP polyA inh -14.4, CSC inhib 15.8, Rce1 inhib inactive and eIF4H inh -3.6.

Assay outcomes as filed in PubChem.
